Source: PubChem
GSK3B inh: human GSK3beta kinase inhibition | P49841 | GST-GSK3beta kinase, ADP-Glo luminescence, 60 min; stronger effect = lower value | activity score (negative = inhibition), % at 10 µM | 300,000 compounds, 0.038% hits | AID 2097;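 active = more than half of replicate wells score below -50%, meaning over 50% inhibition versus plate controls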;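 note: 0% = median DMSO wells and -100% = median GW8510 positive control wells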
Target sequence (P49841 whole entry, looked up): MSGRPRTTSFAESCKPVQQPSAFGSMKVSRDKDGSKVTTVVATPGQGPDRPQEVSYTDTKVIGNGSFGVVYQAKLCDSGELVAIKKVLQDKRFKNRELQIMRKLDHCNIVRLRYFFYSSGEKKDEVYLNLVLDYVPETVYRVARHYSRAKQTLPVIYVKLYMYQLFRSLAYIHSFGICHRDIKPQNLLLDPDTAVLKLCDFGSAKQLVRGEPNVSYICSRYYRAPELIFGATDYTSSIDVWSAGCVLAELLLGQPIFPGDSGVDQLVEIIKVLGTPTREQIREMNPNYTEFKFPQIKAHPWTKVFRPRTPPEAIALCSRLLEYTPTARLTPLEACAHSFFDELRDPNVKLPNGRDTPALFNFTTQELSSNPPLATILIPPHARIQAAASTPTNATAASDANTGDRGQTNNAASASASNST
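Test system – GST-tagged human GSK3beta kinase, cell-free · Incubation – 60 min enzyme reaction, room temperature · Signal – ADP-Glo luminescence · Also added – peptide substrate and ATP at 25 µM · Controls – DMSO neutral wells and GW8510 at 20 µM as positive · Buffer or medium – Tris/MgCl2 kinase buffer · Measure – Luminescence-derived activity versus plate DMSO and GW8510 wells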
GSK3 alpha inh: inhibitors of human GSK-3 alpha kinase. P49840. ADP-Glo luminescence, 60 min. inhibition, % at 10 µM. 320,000 compounds, 0.1% hits;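 in the data active = inhibition above about 50%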;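 note: GST-tagged GSK-3 alpha with peptide substrate and 25 µM ATP; 0% = DMSO neutral wells and 100% = GW8510 positive control wells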
PolyA inhibitor: inhibitors of polyadenylation in S. cerevisiae; S. cerevisiae SKY197-pL101 polyadenylation reporter, beta-gal luminescence; efflux-impaired pdr1/pdr3 knockout yeast; score 100 = 6 SD above DMSO; calls only at 12 µM; 300,000 compounds, 0.02% hits; AID 1875;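 active = lowest replicate activity score at least 50, where 100 means six control SD above control mean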;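 note: yeast exposed to compound for 9 h at 30 °C; higher score means more reporter readthrough which indicates perturbed polyadenylation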
DYRK1A inh: inhibitors of rat Dyrk1A kinase. Q63470. ADP-Glo luminescence, NFATc1 peptide. inhibition, % at 12.5 µM. 310,000 compounds, 0.43% hits. AID 504441; in the data active = inhibition above about 50%;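 note: plate controls were vehicle with enzyme for no effect and no enzyme for full effect; many of its hits are not listed in these tables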
RGS4 act: RGS4 potentiation or activation; 310,000 compounds, 0.92% hits; HEK293 M3R/inducible RGS4, carbachol calcium flux Fluo4; stronger effect = lower value; AID 463111; B-score at 10 µM;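 active = B-score of the integrated calcium signal more than 4 SD below the library mean, with starting fluorescence not abnormally high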;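 note: negative B-score means reduced calcium response which marks RGS4 activation or potentiation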
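Also added: carbachol at ECmax as muscarinic agonist stimulus; Assay system: HEK293 cells with stable M3R and inducible RGS4; Timing: overnight RGS4 induction, 30 min dye load 37 °C, 20 min compound RT; Measured by: Fluo4-AM (2 µM) calcium-flux fluorescence, kinetic read.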
HDAC3 inh: human HDAC3 inhibition | O15379 | recombinant HDAC3, fluorogenic peptide/trypsin coupled, fluorescence | inhibition, % at 8.3 µM | 320,000 compounds, 0.15% hits; in the data active = inhibition above about 26%, passing the limit was not always enough
Starred values were filed as active, the others as inactive; i = inactive; . = not tested or not shown; & = joins results of further samples.

no.	canonical_smiles	GSK3B inh	GSK3 alpha inh	PolyA inhibitor
1	C[C@]12CCC3=C4CCC(=O)C=C4CC[C@H]3C1CC[C@@H]2O (stereo partly drawn)	1	1	i
2	CC(C)N(CCC(C(N)=O)(c1ccccc1)c1ccccn1)C(C)C (stereo not drawn)	4	-2	i
3	COc1ccc(OCCSc2nnnn2C2CCCCC2)cc1	-3	-4	.
4	CN1C[C@H](CNC(=O)OCc2ccccc2)C[C@@H]2c3cccc4c3c(cn4C)C[C@H]21	3	-2	i
5	C[C@@]12N[C@@H](Cc3ccccc31)c1ccccc12	0	-3	i
6	O=P(C(Cl)Cl)(N1CCCCC1)N1CCCCC1	-5	-1	i
7	CCCN1CCc2cccc3c2[C@H]1Cc1ccc(O)c(O)c1-3	-3	8	i
8	CC1CCC2C(C)C(=O)OC3OC4(C)CCC1C32OO4 (stereo not drawn)	4	0	i
9	OC(c1ccccc1)(c1ccccc1)C1CCNCC1	2	-2	i
10	CN(C)[C@@H]1C(=O)C(C(N)=O)=C(O)[C@@]2(O)C(=O)C3=C(O)c4c(O)cccc4[C@@](C)(O)C3C[C@@H]12 (stereo partly drawn)	3	6	i
11	Fc1ccc(C(OCCN2CCN(CCCc3ccccc3)CC2)c2ccc(F)cc2)cc1	5	-4	i
12	C[C@]12CCC3C(CC[C@H]4CC(=O)CC[C@]34C)C1CCC2=O (stereo partly drawn)	.	0	.

no.	DYRK1A inh	RGS4 act	HDAC3 inh
1	0	i	0
2	-4&4	i	-1
3	0	i	-7
4	2	i	-6
5	-10&-7	i	1
6	-5	i	2
7	4	i	-2
8	0	i	-3
9	7	i	0
10	17	i	-3
11	-1	i	5
12	-2	.	-4

Quoted from the listing (eight entries):
no.	canonical_smiles	GSK3B inh	GSK3 alpha inh	PolyA inhibitor
1	C[C@]12CCC3=C4CCC(=O)C=C4CC[C@H]3C1CC[C@@H]2O (stereo partly drawn)	1	1	i
2	CC(C)N(CCC(C(N)=O)(c1ccccc1)c1ccccn1)C(C)C (stereo not drawn)	4	-2	i
3	COc1ccc(OCCSc2nnnn2C2CCCCC2)cc1	-3	-4	.
4	CN1C[C@H](CNC(=O)OCc2ccccc2)C[C@@H]2c3cccc4c3c(cn4C)C[C@H]21	3	-2	i
5	C[C@@]12N[C@@H](Cc3ccccc31)c1ccccc12	0	-3	i
6	O=P(C(Cl)Cl)(N1CCCCC1)N1CCCCC1	-5	-1	i
7	CCCN1CCc2cccc3c2[C@H]1Cc1ccc(O)c(O)c1-3	-3	8	i
8	CC1CCC2C(C)C(=O)OC3OC4(C)CCC1C32OO4 (stereo not drawn)	4	0	i

no.	DYRK1A inh	RGS4 act	HDAC3 inh
1	0	i	0
2	-4&4	i	-1
3	0	i	-7
4	2	i	-6
5	-10&-7	i	1
6	-5	i	2
7	4	i	-2
8	0	i	-3

The list is partial. The share of hits here may be higher or lower than overall.
